PINK1 expr mod: changes PINK1 expression; PINK1 immunofluorescence, high-content cytometry, 24 h; Potency, µM (titrated, usually from 76.6 µM), for inactives: at the top dose activation (PINK1 increase), usual class: activators; actives 0.2% (n = 410,000); active = well fitted activation curve with a large enough effect; inconclusive = small, poorly fitted or top-dose-only effect; inactive = flat fitted curve, though single readings scatter; cell line not stated here;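 also: potency is read from the fitted curve at half-maximal effect; % of control where 0% means no effect; nearly all actives have a fitted effect of over 65% in size; a mitochondrial uncoupler was the plate control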
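Compound titrations (5 concentrations, 24 h) on a stable cell line; DMSO and CCCP controls. Endpoint: fixed-cell PINK1 immunofluorescence with mitochondrial, cell and nuclear markers, scanned by microplate cytometer.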
TRPML1 blocker: inhibitors of human TRPML1 channel | actives 0.02% (n = 390,000) | TRPML1-inducible cells, Ca2+ dye fluorescence, FDSS; hits give low values; inhibition of EC80 agonist-evoked calcium signal | Q9GZU1 | activity change, negative = inhibition, % (no concentration beside the values); in the data active means activity change below about -50%; inconclusive means about -30% to -50%; inactive means above about -30%;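 also: stimulus is agonist 54-4 at its EC80 concentration; % is scaled to controls: 0 for no effect and ±100 for the full control effect; compound concentration not given in the record; the text of the record puts the active cut at -80%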
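TRPML1-DL cells, Tet-induced overnight (~16 h, 37 °C) at 1,500 cells/well, were loaded with Ca8 no-wash dye plus quencher for 45-90 min at room temperature. Compounds were pinned during FDSS kinetic reading; agonist 54-4 at EC80 (4 uM final) then added.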
TRPML1 ag: activates the human TRPML1 channel. Q9GZU1. TRPML1-expressing cells, Ca2+ dye fluorescence, FDSS; host cell line not named in the record; reference of the full effect not given here. activation, % (test concentration not listed). actives 0.12% (n = 410,000); in the data active = activation above about 50%; inconclusive = about 30% to 50%; inactive = below about 30%; also: 0% is about no effect; the text of the record puts the active cut at 80%
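Calcium fluorescence on an FDSS kinetic reader gave the read-out. Tet-induced TRPML1-DL cells were plated overnight, dye-loaded (Ca8 with quencher, 45-90 min, room temperature, dark), then read 110 s after compound addition, and again 110 s after 4uM final 54-4 (EC80).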
Six1-Eya2 blk: blocks human Six1 binding to Eya2 | Q15475+O00167 | AlphaScreen GST-Six1/His-Eya2 binding, biochemical; hits give low values; control for the full effect not named in the record | activity change, % (no concentration beside the values) | actives 0.56% (n = 360,000) | AID 651725; in the data active = activity change below about -65%; inconclusive = about -30% to -65%; inactive = above about -30%; also: % is scaled to controls: 0 for no effect and ±100 for the full control effect; compound concentration not given in the record
Target sequence (O00167 whole entry, looked up): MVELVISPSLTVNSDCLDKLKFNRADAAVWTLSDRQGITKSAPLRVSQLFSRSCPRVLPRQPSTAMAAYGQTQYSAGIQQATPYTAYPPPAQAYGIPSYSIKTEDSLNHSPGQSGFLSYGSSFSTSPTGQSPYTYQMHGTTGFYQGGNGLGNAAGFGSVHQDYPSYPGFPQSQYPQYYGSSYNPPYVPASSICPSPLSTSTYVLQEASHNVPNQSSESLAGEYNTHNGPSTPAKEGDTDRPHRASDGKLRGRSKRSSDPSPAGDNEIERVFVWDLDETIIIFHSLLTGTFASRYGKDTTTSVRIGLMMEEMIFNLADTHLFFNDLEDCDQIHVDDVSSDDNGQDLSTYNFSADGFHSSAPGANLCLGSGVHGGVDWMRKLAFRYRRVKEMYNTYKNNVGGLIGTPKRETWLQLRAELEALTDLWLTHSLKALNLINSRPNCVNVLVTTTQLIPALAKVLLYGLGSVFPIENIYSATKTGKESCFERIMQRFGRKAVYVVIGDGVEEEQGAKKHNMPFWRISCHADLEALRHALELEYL
Target sequence (Q15475 whole entry, looked up): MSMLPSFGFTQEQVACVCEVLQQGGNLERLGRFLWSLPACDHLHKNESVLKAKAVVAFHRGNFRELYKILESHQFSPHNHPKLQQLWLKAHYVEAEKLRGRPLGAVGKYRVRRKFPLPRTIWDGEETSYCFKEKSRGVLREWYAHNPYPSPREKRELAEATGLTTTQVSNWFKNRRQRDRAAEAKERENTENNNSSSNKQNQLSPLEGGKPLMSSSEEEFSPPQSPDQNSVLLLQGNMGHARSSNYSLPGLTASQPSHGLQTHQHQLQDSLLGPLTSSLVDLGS
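Compounds are tested against tagged Six1 and Eya2 proteins bridged by glutathione donor and nickel acceptor beads; after a one-hour incubation at 37 °C without light, AlphaScreen emission is recorded.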
D2 PAM: positive allosteric modulators of human D2 dopamine receptor | P14416 | DiscoveRx D2 beta-arrestin cells, luminescence, 90 min; 100% = 57 uM dopamine signal | potentiation, % (test concentration not listed) | actives 0.23% (n = 360,000) | AID 624464; active = potentiation of 50% or more; inconclusive = 30% to 50%; inactive = 30% or less;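 also: compound concentration not given in the record; tested on top of an EC20 dose of dopamine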
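PathHunter beta-arrestin assay in DiscoveRx D2 cells. Compounds were added with an EC20 of dopamine (50 nM final) for 90 min at 37 deg C. Luminescence was read 1 h after detection reagent, with 57 uM dopamine as the EC100 control.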
D2 ag: activates the human D2 dopamine receptor. P14416. DiscoveRx PathHunter D2 beta-arrestin, luminescence, 90 min; 100% = 57 uM dopamine signal. activation, % (test concentration not listed). actives 0.084% (n = 360,000); in the data active = activation above about 40%; inconclusive = about 15% to 40%; inactive = below about 15%; also: compound concentration not given in the record; the text of the record calls up to 30% inactive
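Agonist mode: compounds alone added to overnight-plated D2 PathHunter cells for 90 min at 37 C, with 57 uM final dopamine (EC100) defining full response. Beta-arrestin recruitment detected by chemiluminescent reagent, read after 1 h at ambient temperature.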
Active calls of the source: *; ? = inconclusive; / = not tested or not shown; & = joins results of further samples; [ ] = dose if it differs, or a comment.

Structure	PINK1 expr mod	TRPML1 blocker	TRPML1 ag	Six1-Eya2 blk	D2 PAM	D2 ag
Cc1ccc(-c2nnn(CC(=O)NCCc3ccc4c(c3)OCO4)n2)cc1	5.3%	9.2	-0.6	-0.1	-1.5	-0.6
Cc1ccc(-c2csc(NNC(=O)c3ccccc3)n2)cc1	2.6%	9.2	1.8	-0.1	-1.8	-4.8
COc1ccc(C[C@H]2CN3C(=NC[C@@H]3C(C)C)N2CCNC(=O)c2ccc(C)c(Br)c2)cc1	-1.0%	14.4	0.2	4.2	-33.3	-1.1
Cc1ccc(S(N)(=O)=O)cc1NC(=O)c1ccc2c3c(cccc13)CC2	3.6%	-12.8	-0.7	11.7	-25.6	-0.5
NC(=O)NC(=O)C(Nc1ccc2c(c1)CCC2)c1ccccc1 (configuration not stated)	0.4%	0.5	2.6	-19.5	-6.9	-1.6
COc1ccccc1N1CCN(C(=S)Nc2ccc(S(=O)(=O)N3CCOCC3)cc2)CC1	0.0%	-6.6	-0.7	-3.1	-5.8	4.0
O=C(COC(=O)c1ccc(Cl)c(S(=O)(=O)N2CCCCCC2)c1)NCc1ccccc1	-0.8%	14.6	-0.2	-4.3	-0.3	-2.2
Cc1ccsc1/C=N/n1c(-c2ccccc2)n[nH]c1=S	0.5%	-17.2	1.0	0.4	-2.7	0.4
CSc1ccc(C(=O)C2CCCN(C(=O)Cc3nonc3C)C2)cc1 (configuration not stated)	-1.3%	-0.4	0.0	8.7	-4.3	-4.9
Cc1ccc(OCC(=O)OC2CCCN(C)C2)cc1 (configuration not stated)	0.8%	40.3	0.3	0.7	-5.0	14.5
CCCOc1cccc(C(=O)NCCNC(=O)c2cnccn2)c1	-1.0%	1.8	1.6	-2.4	0.2	0.9
COc1ccc(CNC(=O)CSc2nc3ccccc3nc2Cc2ccccc2OC)cc1	-8.9%	3.1	2.6	/	/	/

Structure	PINK1 expr mod	TRPML1 blocker	TRPML1 ag	Six1-Eya2 blk	D2 PAM	D2 ag
CCCN1CCc2c(sc(NC(=O)c3ccc(S(=O)(=O)N4CCN(C(=O)OCC)CC4)cc3)c2C(N)=O)C1	-0.1%	14.1	1.8	8.1	-8.9	-2.9
Cc1ccc(S(=O)(=O)c2ccc(Cl)cc2)cc1S(=O)(=O)N1CCOCC1	-3.2%[38.3 µM]	-9.6	0.4	2.9	1.6	2.8
COc1ccccc1-n1cnnc1SCC(=O)N1CCN(C(=O)c2ccco2)CC1	1.7%	1.2	-0.6	3.7	-2.1	-4.9
CCOC(=O)CC1=C(C(=O)OCC)C(c2ccc(OC)cc2OC)C(C#N)=C(N)O1 (configuration not stated)	7.0%	4.4	1.5	-0.6	-3.3	-1.3
O=C1NC[C@H](CCCCN2CCN(Cc3ccccc3)C(=O)C2=O)N(CCc2ccccc2)C1=O	0.3%	/	-0.4	4.3	/	/
NC(=O)COC(=O)c1ccc(S(=O)(=O)N2CCCCCC2)cc1	-2.1%	-8.9	-0.1	0.6	-5.3	-2.3
O=C(Nc1ccc2nc3n(c(=O)c2c1)CCCC3)c1ccc(Cl)nc1	6.5%	-13.9	0.6	?	4.1	-0.6
CCOc1cc2c(cc1O)CCC1C2CCC2(C)C(O)CCC12 (configuration not stated)	4.0%	12.4	1.6	0.8	-0.4	4.1
O=C(CCn1c2c(c3ccccc31)CCCC2)NNC(=O)c1ccccc1C(=O)O	5.3%	10.9	1.8	-9.2	-13.6	-0.7
O=C(COc1ccc(Br)cc1)NNC(=S)NC(=O)c1ccccc1[N+](=O)[O-]	2.2%	-10.5	2.6	-5.8	-28.7	-4.2
COC(=O)Cn1c(=O)c2c(nc(Br)n2CC(=O)OC)n(C)c1=O	0.2%[38.3 µM]	25.1	-0.3	4.3	-7.4	-2.7
CC1=C(C(=O)OCC2CCCCC2)C(c2ccc(Cl)cc2)CC(=O)N1 (configuration not stated)	1.9%	9.3	-0.9	/	/	/

Structure	PINK1 expr mod	TRPML1 blocker	TRPML1 ag	Six1-Eya2 blk	D2 PAM	D2 ag
CCCCN1C(=O)c2ccc(C(=O)NCCN3C(=O)S/C(=C\c4cccnc4)C3=O)cc2C1=O	3.7%	7.5	3.5	5.3	4.1	1.3
CCN(CC)c1ccc2cc(-c3nc(-c4ccccc4F)no3)c(=O)oc2c1	2.5%	-18.0	11.2	/	/	/
Cc1ccc(C(=O)N[C@H](C(=O)N2CCN(c3ccccc3F)CC2)C(C)C)cc1	0.6%	17.1	-0.2	-1.7	0.6	-4.4
Nc1nnc(SCC(=O)Nc2ccccc2)s1	0.3%&-1.1%	0.3&-10.0	-0.1&-0.6	-2.9	24.0	2.3
COc1ccc(/C=C2\SC(=O)N(CCc3nnc(N)s3)C2=O)cc1	?	/	/	-25.4	-3.8	6.8
COc1ccc(-n2nc3cc(C)c(N)cc3n2)cc1Cl	5.9%	2.6	-0.5	5.4	-4.2	4.5
O=C(N/N=C/c1cc([N+](=O)[O-])ccc1N1CCCCCC1)c1ccccn1	0.6%	-1.8	0.4	-14.6	-3.2	-1.2
N#CC1=C(N)NC(=S)C(C(N)=O)C1c1ccccc1F (configuration not stated)	-1.9%	45.2	0.5	-8.0	-7.3	1.7
COc1ccc(Nc2nccc(OC)c2C#N)cc1	0.7%[38.3 µM]	-2.4	-0.3	2.0	2.2	-1.9
Nc1nc(C(F)(F)F)c(Br)c(=O)n1N	0.6%	-5.6	0.6	7.6	-9.4	2.0
COc1ccc(-c2[nH]ncc2CN2CCCN(C(=O)c3ccco3)CC2)cc1F	-1.2%	18.3	0.7	2.9	-5.3	3.5
COc1ccc(/C=C(\NC(=O)c2cccs2)C(=O)NN)cc1OC	1.8%	-3.6	-0.7	-4.0	-5.5	-3.1

Structure	PINK1 expr mod	TRPML1 blocker	TRPML1 ag	Six1-Eya2 blk	D2 PAM	D2 ag
CCOC(=O)N1CCC(N2Cc3cccc(C(=O)NCc4ccc5c(c4)OCO5)c3C2=O)CC1	1.1%	-7.3	1.4	13.8	-2.2	-0.9
O=C(/C=C/c1ccc(Cl)c(Cl)c1)N1CCOCC1	-0.7%	-11.9	0.0	4.3	-7.5	1.7
N#C/C(=C\c1cccnc1)C(=O)Nc1ccc(C(=O)O)cc1	0.3%	2.1	0.3	3.1	-8.1	-2.1
Cc1ccsc1/C=N/NC(=O)c1ccncc1	0.9%	-5.9	1.0	-13.7	-5.2	-2.1
CCn1c(=O)cc(SCC(=O)NCCCN2CCN(c3ccc(F)cc3)CC2)c2ccccc21	-0.8%[38.3 µM]	-13.5	1.8	3.2	-14.9	4.9
Cn1cccc1C1CCCN1CC(=O)Nc1c(Cl)cc(Cl)cc1Cl (configuration not stated)	2.1%	3.2	-0.7	-14.4	-11.5	-2.2
CCOc1ccc2c(c1)c(=O)c(S(=O)(=O)c1ccc(CC)cc1)cn2Cc1cccc(Cl)c1	-0.2%	-5.4	0.5	/	/	/
O=C(COc1ccc(C(=O)O)cc1)Nc1cccc(C(F)(F)F)c1	-1.1%	-11.3	-0.5	0.6	-0.7	0.9
COCCCNc1nccn2ccnc12	0.9%	/	-0.3	-7.5	-5.2	-4.5
CCOC(=O)C1=C[C@@H](c2ccccc2)N(S(=O)(=O)c2ccc(C)cc2)[C@H]1c1ccccc1Cl	3.5%	48.2	1.5	-1.0	-4.7	-2.6
O=C(N[C@@H](Cc1ccccc1)C(=O)N1CCC2(CC1)NCCc1[nH]cnc12)c1cccc(F)c1	-1.1%	3.2	-0.7	0.0	5.1	2.1
O=C(CN1CCN(C(=O)c2ccccc2)CC1)Nc1cccc(S(=O)(=O)N2CCCC2)c1	0.3%	-7.8	-0.2	2.3	-30.0	4.7

Structure	PINK1 expr mod	TRPML1 blocker	TRPML1 ag	Six1-Eya2 blk	D2 PAM	D2 ag
CCCOc1cccc(C2c3c(oc4ccc(F)cc4c3=O)C(=O)N2Cc2ccc3c(c2)OCO3)c1 (configuration not stated)	-2.5%	6.3	1.6	/	/	/
O=S(=O)(c1ccc(Cl)nc1)N1CCN(Cc2ccc3c(c2)OCO3)CC1	-1.3%	3.4	1.4	-4.8	-4.1	-1.9
Cc1cc(=O)n2nc(N3CCCC(C(=O)NCCCN4CCc5ccccc5C4)C3)sc2n1 (configuration not stated)	3.0%	-18.7	-0.1	-8.7	-32.6	2.2
Cc1cccnc1C(NC(=O)C1CCN(Cc2ccc3ccccc3n2)CC1)c1ccc(Cl)cc1 (configuration not stated)	0.9%	/	-0.7	-8.8	-14.3	2.1
COc1ccc(NC(=O)COC(=O)Cn2cnc3ccccc3c2=O)c(OC)c1	1.6%	21.2	0.0	6.6	4.2	-2.2
Cc1ccc(C(=O)OCC(=O)NC(=O)NCc2ccccc2)cc1C	5.3%	-1.6	0.6	3.3	-0.6	-1.1
Cc1cc(NCC2CCCO2)n2c(nc3ccccc32)c1C#N (configuration not stated)	-0.6%	-7.1	-0.3	-1.7	8.5	-2.1
O=C(NCCN1C(=O)S/C(=C/c2cccnc2)C1=O)C1CC(=O)N(Cc2ccccc2)C1 (configuration not stated)	-1.2%	5.2	0.2	-1.8	-6.3	2.2
N#CCSc1nnc(Cc2ccc3c(c2)OCO3)o1	4.2%	7.7	-0.4	-13.6	6.0	0.6
C#CCOCCOCCOCCNc1nc(N2CCN(C(=O)Cn3cc(CC(C)O)nn3)CC2)nc(N2CCN(C(=O)Cn3cc(CC(C)O)nn3)CC2)n1 (configuration not stated)	-0.4%	6.0	-0.2	-2.9	-16.6	-3.9
Cn1nc(C(=O)Nc2cccnc2)c2ccccc2c1=O	-3.2%	54.9	0.5	?	9.9	1.2
C[C@H]1CN([C@@H](C)CO)C(=O)CCCn2nncc2CO[C@@H]1CN(C)C(=O)Nc1ccnc(N2CCOCC2)c1	2.4%	3.3	-0.5	11.2	5.8	1.2
Cc1cccc(NC(=O)CSc2nc(-c3ccccc3)cc(=O)[nH]2)c1C	-0.2%	-1.9	-0.1	/	/	/
CCC(/C=N/NC(=O)C(N)=O)CC	-0.4%	16.4	0.3	-4.9	-7.2	-2.2
COCc1ccc(C(=O)NC2CCCN(Cc3ccccc3F)C2)o1 (configuration not stated)	0.7%	8.8	0.2	3.0	-2.7	-3.0
